Sa ugtP lethal = compounds lethal to S. aureus RN4220 ugtP deletion mutant. OD600 growth, 16 h; some inactives read as strong as hits. growth inhibition, % (no concentration beside the values). 330,000 compounds, 0.54% hits;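 active means z-score under -3 and OD600 up to 0.15 on both plates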;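 further: plate controls were untreated wells for no effect and antibiotic for full effect; wells of about 80 µL received 100 nL stock; the first replicate is given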
Mtb hypoxia rep = Mtb hypoxia fluorescent reporter inhibition; M. tuberculosis hypoxia-regulated fluorescent reporter, fluorescence; fluorescence inhibition, % (no concentration beside the values); 300,000 compounds, 0.1% hits;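 active means 35 to 45% if threefold the growth effect, above 45% if 1.5-fold the growth effect; inactive means the rest, general growth blockers included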;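 further: wells of about 50 µL received 100 nL stock; 0% = vehicle wells and 100% = reference inhibitor wells; whole bacteria with a GFP reporter of the hypoxia response; strong numbers were not always called active; many hits fall short of the cut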
RN4220 kill = kills Staphylococcus aureus RN4220 | S. aureus RN4220 growth, OD600, 16 h | inhibition, % (no concentration beside the values) | 330,000 compounds, 0.33% hits;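 active means z-score of -3 or lower and OD600 up to 0.18 on both plates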;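 further: plate controls were untreated cells for no effect and reference antibiotic for full effect; stock transfer was 100 nL into about 80 µL; one replicate is shown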
BJeLR viability = kills HRASV12-expressing BJeLR cells. 300,000 compounds, 0.17% hits. inhibition, % (no concentration beside the values). AID 1554. BJeLR (HRASV12) viability, CellTiter-Glo ATP luminescence, 48 h; reference of the scale not given here;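 active means replicate mean above 50%; inconclusive means above 50% but judged a plate artefact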;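 further: 50 nL library stock added to about 25 µL; numbers are from one replicate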
PrP 5UTR inh = suppresses PrP 5' UTR mRNA reporter expression; cell-based PrP 5' UTR mRNA reporter, plate reader; inhibition, % (no concentration beside the values); 340,000 compounds, 0.35% hits; AID 488862;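 active means every replicate at 50% or more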;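 further: 0 = median of the neutral control wells; tested in H4 reporter cells; numbers are from one replicate; inactives centre near -14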
Autofluor counter = counter-screen for toxin protease inhibitors: compound fluorescence. compound autofluorescence counterscreen, microsphere flow cytometry; stronger effect = higher value. 360,000 compounds, 3.1% hits. AID 624483. fluorescence intensity (no concentration beside the values);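 active means at least 3 SD above the mean of all compounds, about 16000 in these data; inconclusive means too few beads counted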;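 further: 100 nL of 1 mM stock went into each well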
Mtb hypoxia rep growth = also measured in Mtb hypoxia rep; calls as there; growth inhibition, %; measured here: M. tuberculosis growth (absorbance);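 0% = vehicle and 100% = reference antibiotic; read after six days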
Numbers without * were called inactive; ? = inconclusive; / = no result given. Outcome played no part in choosing rows, and some 4% of all compounds hit somewhere here.

Every second line gives: Sa ugtP lethal, Mtb hypoxia rep, Mtb hypoxia rep growth, RN4220 kill, BJeLR viability, PrP 5UTR inh, Autofluor counter
Cc1cnc(C(=O)Nc2cc(F)ccc2C)cn1
  3, 15, -1, 1.6, 6, 44, 3205
COc1ccc(Cc2nc3ccc(C(=O)NC(C)C)cc3o2)cc1
  /, /, /, /, -10, -28, 3982
COc1ccc(-c2csc(/C(C#N)=C\c3ccc(OC)c([N+](=O)[O-])c3)n2)cc1
  -2, 10, 1, 3.0, -4, 0, 2033
Cc1ccc(-c2nc3c(c(=O)[nH]c(=O)n3CC(C)C)n2CC(C)C)cc1[N+](=O)[O-]
  4, 6, 14, -2.3, 23, -5, 3906
Cn1c(=O)n(C)c2cc(S(=O)(=O)N3CCCCC3)ccc21
  2, 5, -3, 1.5, -11, -16, 3054
CCOC(=O)c1cccc(NC(=O)CSc2nnc(C)n2Cc2ccccc2)c1
  -3, -5, 6, -0.9, -2, -15, 12450
CCC1(CC)COP(=O)(OCC(Cl)CCl)OC1 (configuration not stated)
  11, 9, 17, 3.1, /, -18, 3648
CCC1CCCCN1S(=O)(=O)c1ccc(NC(=O)c2nc(S(C)(=O)=O)ncc2Cl)cc1 (configuration not stated)
  /, /, /, /, -7, -12, 5900
O=C(COc1ccc(Br)cc1Cl)NC(=S)Nc1ccccn1
  9, 11, 5, 4.3, -4, -27, 5171
CCOC(=O)c1sc(N=CN(C)C)nc1C
  13, 19, 9, 7.8, /, /, /
Cn1c(CSc2nc3ccccc3s2)nnc1SCC(=O)NCc1ccccn1
  5, /, /, 1.7, -3, -13, 2700
COc1ccc(C(=O)Nc2cc(OC)nc(OC)n2)cc1
  4, 8, 9, 5.3, 5, -36, 2362
CC(=C/c1ccccc1)/C=N/Nc1nc(N2CCCCC2)nc(N2CCCCC2)n1
  /, /, /, /, -2, -11, 3730
COc1ccc(C(=O)c2ccc(OC)c(N)c2)cc1N
  10, 11, 10, 5.7, -5, 27, 15949
CCOC(=O)N1CCN(S(=O)(=O)N2CCCC(C(=O)NCCCN3CCCCC3)C2)CC1 (configuration not stated)
  7, 15, 5, 2.2, -5, -23, 5351
CC(SC(=S)N1CCCC1)C(=O)O (configuration not stated)
  9, 9, -4, 5.5, -5, -15, 4635
O=C1CCCc2c1cc(C(=O)O)c(=O)n2-c1ccccc1
  2, 1, -1, 1.0, 1, -22, 4603
CC(C)N(C)CCOC(=O)c1ccc2c(c1)OCCO2
  -3, 15, 7, 5.2, -5, -21, 4321
CCOC(=O)N1CCN(c2cc(C)nc3nc(C)nn23)CC1
  3, /, /, -0.3, 2, -18, 5922
CCOP(=S)(OCC)N1CC1
  -1, 7, 3, 2.2, /, -11, 3955
COc1cc(CNc2nc(C)c([N+](=O)[O-])c(C)c2C#N)cc(OC)c1
  -3, 19, 9, -0.8, -3, -10, 3346
Cc1nn(-c2nc3ccccc3[nH]2)c(N)c1-c1ccc(Cl)cc1
  95*, 1, -8, 57, -1, /, 9874
CN(C)CCCNC1=CC(=O)OC12CCCCC2
  -1, 3, 4, -1.8, -1, -10, 3181
Cc1cc(NC(=O)c2cccc(N3C(=O)CCC3=O)c2)no1
  -3, -9, -10, -5.4, 0, -10, 10025
CN(C)c1nc(N)nc(/C(C#N)=C/C2CC3C=CC2C3)n1 (configuration not stated)
  -1, /, /, 0.8, -2, 0, 4937
Clc1ccc(-c2cn3cccnc3n2)cc1Cl
  -14, /, /, -1.4, 5, -60, 6881
O=C(NC1CCCC1)C(c1ccccn1)N(C(=O)c1csnn1)c1ccccc1F (configuration not stated)
  3, 11, 8, 4.5, -5, -34, 4087
COC(=O)CN=Cc1c(O)n(-c2ccc(Cl)cn2)c(=O)c2ccccc12
  0, -5, 4, 4.2, 4, -24, 4538
CC(C)c1ccc(OCC(=O)N(c2ccccn2)C2CCCCC2)cc1
  16, 14, 10, 3.5, 4, -5, 2456
CC(C)(C)NC(=O)CSc1nc(-c2ccc(F)cc2)cs1
  8, -5, -3, 6.3, 7, -62, 3245
O=[N+]([O-])c1ccc(N2CCCCC2)nc1
  5, 1, -5, 1.9, -3, -16, 2608
Cc1ccc2[nH]cc(C(=O)CN3CCC4(CC3)OCCO4)c2c1
  8, /, /, -0.8, 8, -48, 3611
O=C1C2C3C=CC(C2C(=O)N1c1cccc(O)c1)C1C2C(=O)N(c4cccc(O)c4)C(=O)C2C31 (configuration not stated)
  6, 4, 7, 1.5, 8, -22, 4476
CCOc1ccc(/C=C2\SC(=S)N(C(C(=O)O)c3ccccc3)C2=O)cc1OC (configuration not stated)
  24, 4, 2, 15, 3, -16, ?
O=C(CN1c2ccccc2Sc2ccccc21)NN=Cc1ccc(Cl)cc1
  -25, 6, 10, -11, /, /, /
Cc1cc(C(F)F)n2nc(C(=O)Nc3ccccc3F)nc2n1
  6, /, /, 6.2, -3, -11, 2126
COc1cc(C(=O)Nc2c(C)cc(C)cc2C)c([N+](=O)[O-])cc1OC
  3, 5, 11, 2.4, -5, -8, 1970
CCOc1ccccc1NC(=O)c1oc2ccccc2c1NC(=O)C1CCCO1 (configuration not stated)
  -3, 10, 3, -6.6, 3, -13, 4029
COC(=O)c1cc(NC(=O)COC(=O)C2COc3ccccc3O2)cc(C(=O)OC)c1 (configuration not stated)
  1, -6, 3, 2.6, /, 1, 5721
O=C(O)c1cccc(-c2ccc(C=NNc3ccc([N+](=O)[O-])cc3)o2)c1
  22, 18, 5, 8.5, /, /, /
O=C(COC(=O)Cc1cccc(F)c1)NC(=O)NC1CCCCC1
  1, -1, -12, 0.1, /, -15, 4958
CCN(CC)CCN(C(=O)c1ccccc1OC)c1nc2ccc(F)cc2s1
  -8, 5, 3, -1.7, 1, 11, /
O=C(CCc1ccccc1)NNC(=S)NC(=O)c1ccccc1
  9, 4, 10, 40, -1, -20, 13242
CCN(C(=O)COC(=O)/C=C/c1ccc(Cl)c(Cl)c1)c1c(N)n(Cc2ccccc2)c(=O)[nH]c1=O
  -5, 2, 16, 1.7, /, -11, 3454
O=C(c1ccc(Cl)c(S(=O)(=O)N2CCOCC2)c1)N1CCc2ccccc2C1
  8, 10, 8, 0.8, /, -7, 6321
COc1ccc(/C=N/NC(N)=S)cc1
  /, /, /, /, -1, 6, 4414
C=CCN(Cc1ccc(Cl)s1)C(=O)c1ccc(F)c(S(=O)(=O)N2CCOCC2)c1
  1, 7, 7, 4.8, /, -8, 4767
O=C(NN=Cc1ccc(O)c(O)c1)NN=Cc1ccc(O)c(O)c1
  2, 11, -1, 17, /, /, /
CCOC(=O)c1c(/N=C/N(C)C)sc(/C=N/Nc2ccccc2)c1-c1ccc(Cl)cc1
  /, /, /, /, 0, -14, 3621
O=c1[nH]c(C2CCCN(S(=O)(=O)c3ccccc3)C2)nc2c1nnn2Cc1ccc2c(c1)OCCO2 (configuration not stated)
  1, 2, 10, 1.6, -4, -3, ?

Filtered by structure, the entries above with a furan ring, fused or not
Every second line gives: Sa ugtP lethal, Mtb hypoxia rep, Mtb hypoxia rep growth, RN4220 kill, BJeLR viability, PrP 5UTR inh, Autofluor counter
CCOc1ccccc1NC(=O)c1oc2ccccc2c1NC(=O)C1CCCO1 (configuration not stated)
  -3, 10, 3, -6.6, 3, -13, 4029
O=C(O)c1cccc(-c2ccc(C=NNc3ccc([N+](=O)[O-])cc3)o2)c1
  22, 18, 5, 8.5, /, /, /

(listing goes on)
Every second line gives: Sa ugtP lethal, Mtb hypoxia rep, Mtb hypoxia rep growth, RN4220 kill, BJeLR viability, PrP 5UTR inh, Autofluor counter
COc1ccc(-c2csc(NC(=O)c3ccccc3OC)c2C(=O)O)cc1OC
  13, 18, 3, 8.2, -16, -42, 3520
NCCCCCC(=O)N/N=C/c1coc2ccccc2c1=O
  /, /, /, /, -4, -7, 5259
CCn1c(C)[n+](CC)c2ccc(S(=O)(=O)N(C)C)cc21
  -2, 6, 4, 4.6, -1, 2, 3705
CCOC(=O)N1CCN(S(=O)(=O)N2CCCC(C(=O)NCCc3ccc(C)cc3)C2)CC1 (configuration not stated)
  -5, -4, -2, 3.1, 10, -23, 4334
CCC1(CC)NC(=O)N(CC(=O)OCC(=O)Nc2ccccc2OC(F)F)C1=O
  -2, -2, -3, 7.8, /, -20, /
CC1c2ccccc2SC(CCCN(C)C)c2ccccc21 (configuration not stated)
  1, 3, 8, -2.6, -2, -13, 2427
Cc1ccc(SCC(=O)OCC(=O)NC2(C#N)CCCCC2)cc1
  4, 6, 9, 2.1, -4, -17, ?
N#CCCN1CCN(S(=O)(=O)c2cc(Cl)ccc2Cl)CC1
  -69, 17, -5, 3.8, -20, 0, 4535
CCCC(=O)Nc1nc2n(n1)C(c1ccccc1)CC(=O)N2 (configuration not stated)
  5, 7, -2, 2.7, 1, -31, 17011*
COC(=O)c1ccc(CN2CCN(Cc3ccc(C(=O)OC)o3)CC2)o1
  -5, /, /, -12, 1, -7, 2606
COc1cc2c(cc1NC(=O)Nc1ccc(F)cc1)oc1ccccc12
  15, 1, 0, -9.5, 3, -8, 9516
Cc1cccc(C=NNC(=O)NC2CCCCC2)c1
  1, 7, 8, 12, /, /, /
CC(c1ccon1)N(C)C(=O)CCc1nnc(CCCCc2ccccc2)o1 (configuration not stated)
  6, 12, 8, 9.7, 2, -14, 5217
CCOC(=O)CSc1nc(-c2ccccc2)cc(C(F)(F)F)n1
  77, /, /, 1.6, 4, -27, 5064
Cc1ccc(C(C)C)c(OCCNCCc2ccccc2)c1
  -25, 0, 17, 1.2, -8, 4, 4327
COC(=O)C1C2CC[C@@H](CC1OC(=O)c1ccccc1)N2 (some centres not stated)
  12, /, /, 1.5, /, 9, 6536
CCOc1ccc(C(=O)CCC(=O)NCC(=O)OCc2ccccc2)cc1OCC
  2, 0, 1, -1.5, 0, -7, 4417
O=C(CSc1nc2ccccc2s1)N/N=C/c1cc([N+](=O)[O-])ccc1O
  /, /, /, /, -5, -20, 5533
COc1cc([N+](=O)[O-])ccc1NC(=S)NC(=O)CC(C)(C)C
  25, 6, 8, 1.1, -6, -34, 4267
CN(C)S(=O)(=O)c1cccc(NC(=O)COC(=O)c2cc(=O)[nH]c(=O)[nH]2)c1
  2, 17, 9, 2.8, 1, -6, 2493
O=C(Cc1sc(Nc2ccccc2)nc1-c1ccccc1)NCc1ccccn1
  7, -2, 4, 3.3, -15, -77, 4527
O=C(CN1CCOCC1)Nc1ccc(Oc2ccccc2)cc1
  6, 20, 15, -2.1, 0, -27, 3939
Cn1c(N)c(C(=O)COC(=O)c2cc(C(F)(F)F)nc3ccccc23)c(=O)n(Cc2ccccc2)c1=O
  -20, 7, 12, -7.9, /, /, /
Cc1ccc(NC(=O)CN2C(=O)SC(=Cc3cc(C)n(-c4cccc(C(=O)O)c4)c3C)C2=O)cc1
  41, 4, 5, 28, /, /, /
Cc1cccc(-c2nsc(SCC(=O)NCc3ccc4c(c3)OCO4)n2)c1
  5, 18, 12, -4.9, 0, -12, 2389
O=C1c2ccccc2C(=O)N1CCCCCCc1ccccc1
  36, 1, 5, -4.4, /, -14, 3839

2 entries picked at random from the list so far, as already listed:
Every second line gives: Sa ugtP lethal, Mtb hypoxia rep, Mtb hypoxia rep growth, RN4220 kill, BJeLR viability, PrP 5UTR inh, Autofluor counter
Cc1cccc(-c2nsc(SCC(=O)NCc3ccc4c(c3)OCO4)n2)c1
  5, 18, 12, -4.9, 0, -12, 2389
Cc1ccc(NC(=O)CN2C(=O)SC(=Cc3cc(C)n(-c4cccc(C(=O)O)c4)c3C)C2=O)cc1
  41, 4, 5, 28, /, /, /
